Menin-MLL FL inh: qHTS Assay for Inhibitors Targeting the Menin-MLL Interaction in MLL Related Leukemias: Competition With Fluorescein Labeled MLL-derived Peptide; Fluorescence polarization, fluorescein-MLL peptide displacement from menin; FP activity change, % at 61.4 µM; 290,000 tested, under 10 active; inconclusive = falling polarisation curve, or a change in total fluorescence; inactive = total fluorescence flat and polarisation flat or rising; no compound was filed as active; the % refers to the polarisation; negative = inhibition;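 further: % of control where 0% means no effect; inhibitors lower the polarisation; unlabelled MLL peptide was the positive control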
gsp agonist: qHTS for Agonist of gsp, the Etiologic Mutation Responsible for Fibrous Dysplasia/McCune-Albright Syndrome: qHTS. gsp mutant cells, cAMP HTRF, 30 min; control for the full effect not named in the record. Potency, µM (highest dose often 76.9 µM), without a hit: top-dose activation (cAMP increase), usual class: activators. 340,000 compounds, 0.13% hits; active = well fitted activation curve with a large enough effect; inconclusive = small, poorly fitted or top-dose-only effect, or another doubt; inactive = no such curve, though single readings can be large or run the other way; cell line not stated here;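 further: phosphodiesterase inhibitor Ro 20-1724 added with compounds to block cAMP breakdown; potency means the concentration at half of the fitted maximal effect; nearly all actives have a fitted effect of over 60% in size; about a fifth of the inactives were tested at one dose only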
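Cells stably selected in G418 were plated at 2000/well, grown 16-24 hr, then given compounds in DMSO with the PDE inhibitor […] (300 uM solution added) for 30 min at 37C; cAMP was read by HTRF.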
ClpP mod: qHTS Assay for Activators of ClpP. Potency, µM (titrated, usually from 57.5 µM), inactives show at the top dose activity change, negative = active. purified B. subtilis ClpP, FRET peptide cleavage, 20 min. ATP-dependent Clp protease proteolytic subunit (Bacillus subtilis (strain 168)), P80244. 340,000 compounds, 1.9% hits; active = well fitted falling curve with a large enough effect; inconclusive = small, poorly fitted or top-dose-only effect; inactive = no such curve, though single readings can be large or run the other way; further: potency means the concentration at half of the fitted maximal effect; the source files actives as falling curves though it sought activators and does not explain the sign; nearly all actives have a fitted effect of over 65% in size; many hits overshoot -100%
Target sequence (P80244 whole entry, looked up): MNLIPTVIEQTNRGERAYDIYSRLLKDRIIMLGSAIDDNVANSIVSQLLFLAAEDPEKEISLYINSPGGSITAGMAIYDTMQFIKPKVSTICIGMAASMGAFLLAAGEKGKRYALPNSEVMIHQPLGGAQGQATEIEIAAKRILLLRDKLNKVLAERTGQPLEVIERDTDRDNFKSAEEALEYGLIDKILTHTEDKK
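ClpP 10 microg/mL final, pH 8 Tris/KCl buffer with BSA, glycerol, Tween-20; compound pinned in; FRET-FV substrate; RT 20 min; Ex320/Em430; ΔFRET vs ADEP 5.8 microM, DMSO, no enzyme.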
TRPML1 inh: qHTS for Inhibitors of the Human Mucolipin Transient Receptor Potential 1 (TRPML1); TRPML1-inducible cells, Ca2+ dye fluorescence, FDSS; hits give low values; inhibition of EC80 agonist-evoked calcium signal; Mucolipin-1 (Homo sapiens), Q9GZU1; activity change, negative = inhibition, % (test concentration not listed); 390,000 compounds, 0.02% hits; in the data active means activity change below about -50%; inconclusive means about -30% to -50%; inactive means above about -30%;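 further: stimulus is agonist 54-4 at its EC80 concentration; on the % scale 0 is the no-effect control and ±100 the full control effect; compound concentration not given in the record; the text of the record puts the active cut at -80%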
Target sequence (Q9GZU1 whole entry, looked up): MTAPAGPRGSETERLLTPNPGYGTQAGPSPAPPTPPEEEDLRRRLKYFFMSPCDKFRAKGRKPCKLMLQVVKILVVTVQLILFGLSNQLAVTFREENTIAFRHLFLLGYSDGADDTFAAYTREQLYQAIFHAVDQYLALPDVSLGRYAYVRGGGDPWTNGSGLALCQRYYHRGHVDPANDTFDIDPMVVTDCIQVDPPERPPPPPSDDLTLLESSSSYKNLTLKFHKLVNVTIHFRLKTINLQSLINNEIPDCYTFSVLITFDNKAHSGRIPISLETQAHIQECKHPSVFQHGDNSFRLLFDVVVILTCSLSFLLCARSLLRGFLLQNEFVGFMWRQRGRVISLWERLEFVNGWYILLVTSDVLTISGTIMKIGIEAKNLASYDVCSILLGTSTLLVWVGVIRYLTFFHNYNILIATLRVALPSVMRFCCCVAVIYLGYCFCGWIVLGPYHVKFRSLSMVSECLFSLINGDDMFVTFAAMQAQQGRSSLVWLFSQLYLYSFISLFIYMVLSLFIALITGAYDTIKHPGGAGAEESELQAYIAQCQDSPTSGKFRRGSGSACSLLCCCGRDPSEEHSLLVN
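TRPML1-DL cells, Tet-induced overnight (~16 h, 37 °C) at 1,500 cells/well, were loaded with Ca8 no-wash dye plus quencher for 45-90 min at room temperature. Compounds were pinned during FDSS kinetic reading; agonist 54-4 at EC80 (4 uM final) then added.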
gsp antag: qHTS for Antagonists of gsp, the Etiologic Mutation Responsible for Fibrous Dysplasia/McCune-Albright Syndrome: qHTS; gsp-mutant cells, cAMP HTRF, 30 min; control for the full effect not named in the record; Potency, µM (highest dose often 76.9 µM), for inactives: at the top dose activity change, negative = inhibition, hits mostly inhibitors; 340,000 compounds, 0.4% hits; AID 624288, 2012; active = falling curve of any shape with a large fitted effect; inconclusive = falling curve, mostly with a smaller effect; inactive = flat or rising curve; cell line not stated here;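 further: intracellular cAMP measured with PDE inhibitor Ro 20-1724 present during compound exposure; potency means the concentration at half of the fitted maximal effect; on the % scale 0 is the no-effect control and ±100 the full control effect; nearly all actives have a fitted effect of over 65% in size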
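Cells, 2000/well, grown 16–24 h in DMEM 10% FBS with 0.5 mg/ml G418, then compounds plus […] (300 uM addition stock), 30 min at 37C. cAMP read by HTRF (cAMP-d2 and anti-cAMP antibody-K in lysis buffer) after 30 min RT.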
Sfp inh: qHTS Assay for Inhibitors of Bacillus subtilis Sfp phosphopantetheinyl transferase (PPTase) | 4'-phosphopantetheinyl transferase ffp (Bacillus subtilis), Q9F4F7 | Biochemical Sfp PPTase activity, qHTS | Potency, µM, for the others: max response, negative = inhibition, hits mostly inhibitors | 310,000 compounds, 3.5% hits | AID 1490, 2009; active means well fitted inhibition curve with a large enough effect; inconclusive means small, poorly fitted or top-dose-only effect, or another doubt; inactive means no such curve, though single readings can be large or run the other way;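 further: the enzyme is Sfp with the accession as filed and its product quenches rhodamine fluorescence; potency means the concentration at half of the fitted maximal effect; 0% = enzyme reaction without inhibitor and -100% = no enzyme wells; top concentration of the series not given in the record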
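Reaction rates are the 30-min fluorescence difference (ex 525, em 598 nm) in wells containing 15 nM Sfp, 5 uM rhodamine-CoA and 12.5 uM BHQ-2-YbbR at pH 7.6 with 10 mM MgCl2.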
TRPV1 potentiator: HTS Assay for Compounds that Act as Potentiators of the Vanilloid Receptor 1. TRPV1-expressing cells, Fluo-8 calcium influx, capsaicin EC20 potentiation; host cell line not named in the record; control for the full effect not named in the record. potentiation, % at 8.33 µM. 320,000 compounds, 0.02% hits. AID 540277, 2011; active means potentiation above 80%; inconclusive means 30% to 80%; inactive means below 30%; further: 0% is about no effect
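Cells expressing TRPV1 were dye-loaded with Fluo-8 and read kinetically: 10 s baseline, 3 min after compound (agonist portion), then 2 min after EC20 capsaicin (allosteric enhancer portion). Calcium-bound dye fluorescence at 480/520 nm.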
* = called active by the depositor; ? = inconclusive; · = no result given; [ ] = remark or other dose.

No.	smiles	TRPV1 potentiator	TRPML1 inh	Sfp inh	gsp antag	gsp agonist	Menin-MLL FL inh	ClpP mod
1	OC(COC(c1ccc(Cl)cc1)c1ccc(Cl)cc1)CN1CCN(c2ccccn2)CC1 (stereo not given)	-3	0	-47%	-11%	-2%	0.7	·
2	Cc1ccccc1C(=O)NCCc1nnc(SCC(=O)Nc2nc(-c3ccccc3)cs2)n1C	22	-7	7%	0%	-28%	1.6	-0.2%
3	Cc1cccc(C)c1N1C(=O)c2cccc([N+](=O)[O-])c2C1=O	-15	0	1%	-19%	2%	-23	-1.1%
4	COc1ccc(C(C(=O)NCC2CCCO2)N(C(=O)Cn2nnc3ccccc32)c2ccccc2C(C)=O)cc1OC (stereo not given)	-3	-13	22%	-2%	-9%[15.4 µM]	-0.3	·
5	O=C1OCCN1C(=O)[C@H]1[C@H](c2ccc(F)cc2)C(c2cccc(Cl)c2)=NN1c1ccccc1	·	9	25%	-8%	·	13	4.1%
6	CCC(C)(C)NC(=O)C(c1ccc(F)cc1)N(Cc1ccco1)C(=O)CCC(=O)Nc1ccccn1 (stereo not given)	-14	27	2%	2%	-2%	-0.8	-2.0%
7	O=C(/C=C/c1ccccc1)NNC1=NS(=O)(=O)c2ccccc21	-8	-1	23%	0%	-36%[inhibitor]	-0.2	-2.2%
8	CS(=O)(=O)c1ccc(Cl)c(NC(=O)COC(=O)c2ccc(F)cc2Cl)c1	8	17	16%	1%	-7%[15.4 µM]	5.2	-2.5%
9	Cc1c(NC(=O)C2CCCCN2S(=O)(=O)c2ccc(Cl)cc2)c(=O)n(-c2ccccc2)n1C (stereo not given)	1	12	18%	2%	-3%	1.1	2.1%
10	CC(C)OCCCNc1ncc2c(n1)CC(c1cccs1)CC2=O (stereo not given)	-6	14	-9%	3%	-21%	0.0	0.4%
11	Cn1c(=O)c2c(SCC(=O)N3CCN(c4ccccc4)CC3)nc(C3CC3)nc2n(C)c1=O	-3	4	2%	-4%	-55%[inhibitor]	-0.8	-2.4%
12	CN(C)S(=O)(=O)c1cccc(NC(=O)COC(=O)/C=C/c2ccc3c(c2)OCO3)c1	8	-7	18%	-15%	?	1.6	·
13	COc1ccc(NC(=O)c2onc(C)c2Cl)cc1	-33	-6	8%	-7%	10%	-3.5	?
14	CSc1c2c(nc3ncnn13)CCC2	6	-3	6%	-3%	28%[15.4 µM]	4.4	-1.2%
15	CCn1c(SCC(=O)N2CCN(c3cccc(Cl)c3)CC2)nc2ccccc2c1=O	12	1	-2%	?	-39%[inhibitor]	2.4	-5.9%
16	Cc1cc(NC(=O)Cn2cnc3sccc3c2=O)no1	·	0	·	2%	3%[15.4 µM]	·	-2.3%
17	O=c1cc(O)nc(SCc2ccccc2Cl)[nH]1	·	-13	-17%	1%	0%	-1.9	28µM*
18	CCCCCCCCSc1nnc(/N=C/N(C)C)s1	-2	-15	4%	10%	-2%[15.4 µM]	0.5	·
19	N/C(CCS(=O)(=O)c1ccc(Cl)cc1)=N\OC(=O)c1ccc(Cl)cc1	-4	-5	20%	2%	-14%	0.2	1.9%
20	COC(=O)C1=C(C)N(C)C(C)=C(C(=O)OC)C1c1ccncc1	0	-2	20%	0%	-28%	1.2	-3.0%
21	COc1ccc(NC(=O)c2cccc3c(Br)cccc23)cc1	?	·	17%	-11%	-12%	-5.0	-0.7%
22	Cc1cc(C(=O)Nc2ccc(C)c(S(=O)(=O)N3CCOCC3)c2)c(C)o1	-6	2	17%	-5%	17%[15.4 µM]	-0.2	·
23	O=[N+]([O-])c1ccccc1C(=Nc1ccccc1)c1c(O)cc(O)cc1O	·	35	·	·	59%	·	0.5%
24	Cc1ccc2nc(-c3cccc(S(=O)(=O)N(C)C)c3)cn2c1	0	-6	6%	-2%	21%	12	-9.2%
25	CCOc1ccccc1NC(=S)N(CCN(C)C)C(C)c1ccncc1 (stereo not given)	-8	-1	4%	14%	-24%[15.4 µM]	0.4	·
26	CC(=O)N1CCOc2ccc(S(=O)(=O)NCCc3ccc(C)cc3)cc21	-8	-4	-1%	-10%	-6%	0.3	0.0%
27	O=[N+]([O-])c1ccc2nc(C3CCCCC3)[nH]c2c1	-48	6	9%	-14%	0%[15.4 µM]	3.6	?
28	CC(C)c1cc(C(=O)Nc2cccc(Cl)c2)no1	-12	5	-2%	-22%	-28%	0.5	1.2%
29	CCC(C)c1ccc(NC(=S)N2CCN(C(=O)C3CCCO3)CC2)cc1 (stereo not given)	-17	20	3%	4%	12%	·	0.0%
30	COc1ccc(NC(=O)C(=O)NCC2CCCN2S(=O)(=O)c2cc(C)ccc2C)cc1 (stereo not given)	23	7	·	7%	-4%	·	0.8%
31	CC(=O)c1ccc(S(=O)(=O)N(Cc2cc3cc4c(cc3[nH]c2=O)OCCO4)CC2CCCO2)cc1 (stereo not given)	-1	12	3%	-3%	-6%	0.7	2.2%
32	COc1cccc(N/C(N)=N/c2nc(C(F)(F)F)cc(C(F)(F)F)n2)c1	?	7	23%	-12%	-77%[inhibitor]	6.4	1.2%
33	COc1cccc(CNC(=O)c2ccc(S(=O)(=O)N3CCOCC3)cc2)c1	-29	16	·	-2%	?	·	-2.9%
34	CCOC(=O)C(C)(C)Sc1nc2c(cnn2-c2ccc(F)cc2)c(=O)[nH]1	21	-27	9%	-6%	-24%	-2.8	·
35	CC(=O)c1c(C)[nH]c(C(=O)NNC(=O)COc2cc(C)ccc2C(C)C)c1C	·	17	·	2%	-12%	·	-0.5%
36	COc1ccc(Cn2nnnc2CN2CCN(c3ccc(OC)cc3)CC2)cc1	-3	-8	-6%	-16%	-9%[15.4 µM]	0.4	·
37	CCCCCOc1ccc(C(=O)OCC(=O)Nc2cc(C)on2)cc1	-3	-9	·	4%	-13%	·	18µM*
38	CC(=O)Nc1cccc(/C(C)=N/NC(=O)c2cccc(S(=O)(=O)N3CCOCC3)c2)c1	-10	4	-6%	2%	-15%[15.4 µM]	0.1	0.5%
39	Cc1ccc(S(=O)(=O)N2CCCC(c3nc(-c4ccc(C)o4)no3)C2)cc1 (stereo not given)	1	83	-4%	-10%	-5%	6.0	-0.1%
40	CCOC(=O)C1CCN(c2cc3c(cc2NC(=O)c2ccccc2OCC)n(C)c(=O)n3C)CC1	-7	20	-29%	-20%	-18%	3.7	-1.6%
41	Cc1ccc2[nH]c(C)c(CCNC(=O)c3c(N)no[n+]3[O-])c2c1	-16	-13	-7%	-13%	-2%[15.4 µM]	-2.3	1.5%
42	Cc1ccc(CN2C(=O)C(Cc3ccccc3)Nc3ncnc(N4CCN(c5ccccc5)CC4)c32)cc1 (stereo not given)	24	3	·	11%	11%	·	1.6%
43	CSc1ccc(CCNC(=O)CCc2nnc3ccc(N4CCCC4)nn23)cc1	-2	14	3%	-4%	?	1.4	-0.9%
44	S=C(N=Nc1ccccc1)NNc1ccccc1	4	-16	-14%	-12%	·	-1.7	0.8%
45	Cn1ncc(Cl)c1C(=O)N1CCCc2ccccc21	?	3	17%	4%	-47%[inhibitor]	0.0	-1.7%
46	CCCOc1cccc(C2/C(=C(\O)c3ccc4c(c3)OCCO4)C(=O)C(=O)N2CCCn2ccnc2)c1 (stereo not given)	-11	-25	8%	14%	?	·	0.8%
47	CN1C(=O)[C@@H]2[C@H](C1=O)[C@@H]1C(=O)Nc3ccccc3C(=O)N1[C@@H]2c1cccc(Br)c1	-25	-11	·	13%	27%	·	-21%
48	COc1ccc(NC(=O)c2cc3ccccc3o2)cc1S(=O)(=O)N1CCCCC1	·	14	·	?	-20%[15.4 µM]	·	1.1%
49	COc1ccc(CCn2c(C)cc(C(=O)CN3C(=O)C(=O)N(Cc4ccco4)C3=O)c2C)cc1	9	11	·	3%	-4%	·	-1.8%
50	Cc1ccc(NC(=O)C2CCCN(S(=O)(=O)c3cccnc3)C2)cc1C (stereo not given)	-20	-5	3%	4%	26%	·	-0.4%
51	O=C(O)c1ccccc1C(=O)c1ccc2oc(=O)[nH]c2c1	·	-4	·	10%	3%	·	·
52	Cc1ccc(C(=O)CN2C(=O)NC3(CCc4ccccc43)C2=O)s1 (stereo not given)	?	11	·	-10%	-4%	·	1.3%
53	O=c1[nH]c(C2CCN(S(=O)(=O)c3ccc4c(c3)OCCO4)CC2)nc2c1nnn2Cc1cccc(F)c1	-21	-3	5%	-13%	3%	8.9	·
54	O=C(O)CCCn1c(=S)[nH]c2c(sc3ccc([N+](=O)[O-])cc32)c1=O	15	-10	45µM*	-1%	-4%	1.3	-0.3%
55	Cc1cccc(N(Cc2ccccc2)C(=O)c2cccc(S(=O)(=O)N3CC(C)OC(C)C3)c2)c1 (stereo not given)	2	44	·	-16%	-12%	·	-4.6%
56	COC(=O)c1ccc(NC(=O)c2cccc(NC(=O)c3ccco3)c2)cc1	11	-7	-1%	-3%	5%[15.4 µM]	1.9	-0.6%
57	Cc1ccc(NC(=S)NNC(=O)c2ccccc2OC(F)F)cc1	-6	20	13%	-14%	-16%	-0.2	12%
58	CCN(CC)CCC(=O)Nc1ccc2c(c1)N(C(=O)CN(CC)CC)c1ccccc1CC2	-6	0	12%	9%	1%	-4.7	-8.2%
59	COc1ccc(NC(=S)NC(NC(=O)C(C)C)C(Cl)(Cl)Cl)c([N+](=O)[O-])c1 (stereo not given)	14	-1	-31%	8%	21%	-0.8	-2.0%
60	CCc1cc2c(SCc3nc4sc(C(C)=O)c(C)c4c(=O)[nH]3)ncnc2s1	?	1	-9%	10%	-2%[15.4 µM]	?	·
61	CCC(=O)c1ccc(OCC(=O)NCc2ccccc2CN2CCCC2)cc1	·	13	·	12%	7%[15.4 µM]	·	-1.2%
